Screens: PubChem, Johns Hopkins Ion Channel Center
KCNQ2 inh: KCNQ2 channel blockers in CHO-K1 cells – cell-based, FluxOR thallium flux, B-score, primary screen (AID 2156) | O88943 | 20 min; active compounds read low; only compounds with negative scores are shown here; some inactives read as strong as hits | B-score at 10 µM | 310,000 compounds, 1.1% hits;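 active = fluorescence ratio B-score at most minus 3 library SDs, with starting brightness B-score within 2 library SDs, cut at about -5.5 in these data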
Target sequence (O88943 whole entry, looked up): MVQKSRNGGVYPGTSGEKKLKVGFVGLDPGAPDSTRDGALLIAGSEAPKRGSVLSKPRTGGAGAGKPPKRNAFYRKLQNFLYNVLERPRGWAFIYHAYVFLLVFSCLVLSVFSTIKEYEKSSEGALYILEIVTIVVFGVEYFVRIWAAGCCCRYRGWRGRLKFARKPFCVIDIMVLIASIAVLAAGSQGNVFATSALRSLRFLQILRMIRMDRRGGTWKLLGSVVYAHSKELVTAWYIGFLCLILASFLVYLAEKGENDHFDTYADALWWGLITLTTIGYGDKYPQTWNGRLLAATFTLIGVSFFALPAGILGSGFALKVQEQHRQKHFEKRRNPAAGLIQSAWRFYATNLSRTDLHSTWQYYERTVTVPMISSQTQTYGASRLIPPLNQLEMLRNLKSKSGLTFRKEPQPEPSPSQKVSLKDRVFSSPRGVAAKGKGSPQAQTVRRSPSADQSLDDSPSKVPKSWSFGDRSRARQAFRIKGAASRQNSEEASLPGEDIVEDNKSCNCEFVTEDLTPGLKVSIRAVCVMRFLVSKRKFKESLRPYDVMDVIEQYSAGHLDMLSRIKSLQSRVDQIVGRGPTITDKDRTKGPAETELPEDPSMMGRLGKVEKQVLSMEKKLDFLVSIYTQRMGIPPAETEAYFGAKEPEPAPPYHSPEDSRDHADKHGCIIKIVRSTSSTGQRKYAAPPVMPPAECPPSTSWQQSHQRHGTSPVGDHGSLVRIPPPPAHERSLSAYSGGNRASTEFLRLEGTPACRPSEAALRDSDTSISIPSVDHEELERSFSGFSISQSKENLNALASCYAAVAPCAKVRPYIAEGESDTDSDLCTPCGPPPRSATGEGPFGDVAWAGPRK
KCNQ2 inh baseline: further read-out of KCNQ2 inh, marked with its call; B-score; measured here: initial fluorescence intensity artifact check;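 brightness before thallium and not channel activity; 0 = typical well and far values either way flag optical interference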
An asterisk follows results filed as active; i = inactive. These rows are one share of the data; the hit share may differ from the screen's.

SMILES | KCNQ2 inh | KCNQ2 inh baseline
COc1ccccc1C/C(N)=N/OC(=O)COc1ccc2ccccc2c1 | i | -0.58
O=C1Nc2ccc(S(=O)(=O)N3CCCC3)c3ccc(S(=O)(=O)N4CCCC4)c1c23 | i | -0.87
O=C(NCCc1ccccc1Cl)C1CCC(=O)N(CC2CCCCC2)C1 (stereo not drawn) | i | -0.91
O=C(N/C(=C/c1cccc([N+](=O)[O-])c1)C(=O)N1CCCCC1)c1ccco1 | i | 1.4
O=C1CN(C(=O)CNCc2ccc(Cl)cc2)c2ccccc2N1 | i | 3.5
CCOC(=O)C1CCCN(C(=O)c2ccc(Cl)c(S(=O)(=O)N3CCCCCC3)c2)C1 (stereo not drawn) | i | -0.01
O=C(/C=C\c1ccccc1OC(=O)c1ccccc1F)c1cc2ccccc2o1 | i | 0.56
CCC1=Nc2cc(C(=O)NCC3CCCO3)ccc2Sc2ccc(Cl)cc21 (stereo not drawn) | i | -0.32
Cc1ccc(-n2c3c(c(=O)[nH]c2=O)C(NS(=O)(=O)c2ccc(Cl)cc2)(C(F)(F)F)C(=O)N3)cc1 (stereo not drawn) | i | -0.59
Cc1cccc(OCCCn2c(=O)oc3ccccc32)c1 | i | -0.6
CCCc1ccc(-c2csc(NC(=O)Cc3cccs3)n2)cc1 | i | 0.47
COc1cc(NC(=O)C2=CC(c3ccco3)=NS(=O)(=O)N2C)cc(OC)c1OC | i | 0.1
COc1cc(OC)c2c(-c3ccccc3)cc(=O)oc2c1C(CCN1CCCCC1)c1ccc(N(C)C)cc1 (stereo not drawn) | i | -0.59
O=C(Nc1ccccc1)[C@@H]1CC=C[C@@H]2CCN(Cc3ccccc3)C(=O)[C@@H]21 | i | 3
Cc1c(Cl)cccc1Nc1nc(N)nc(CN2CCc3ccccc3C2)n1 | i | 0.27
COc1ccc(-c2nc(CS(=O)(=O)CC(=O)NC3CCCCC3C)c(C)o2)cc1 (stereo not drawn) | i | -0.31
COc1ccc(-c2[nH]n(-c3ccc([N+](=O)[O-])cc3)c(=O)c2C=NCC2CCCO2)cc1 (stereo not drawn) | i | 1.2
CCc1ccc(N=CC23c4ccccc4C(c4ccccc42)C2C(=O)N(c4ccc(OC)cc4)C(=O)C23)cc1 (stereo not drawn) | i | 0.87
CN(C)CCOCCOc1ccc(Cl)c2ccccc12 | i | -3.9
COc1ccc(N(CC(=O)Nc2cccc(N(C)S(C)(=O)=O)c2)S(=O)(=O)c2ccc(F)cc2)cc1 | i | 2
Cc1nnc(NC(=O)CSc2cn(CCNC(=O)c3ccccc3)c3ccccc23)s1 | i | -1.6
CN(C)C(CNC(=O)CCc1c[nH]c2ccccc12)c1ccccc1 (stereo not drawn) | i | -0.1
CCc1cc(C(=O)Nc2cc(S(=O)(=O)N(CC)CC)ccc2N2CCN(C)CC2)sc1C | i | 0.38
COc1ccc(C2c3c(ccc4ccccc34)Oc3ncn4nc(Cc5ccc(OC)c(OC)c5)nc4c32)cc1 (stereo not drawn) | i | 0.15
CCOP(=O)(OCC)c1nc(-c2cccc3ccccc23)oc1N1CCOCC1 | i | 0.44
Cc1cc(C)c(NC(=O)Cn2nc(-c3ccccc3)nc2-c2ccccc2)c(C)c1 | i | 0.37
CCC(=O)Nc1nn(CC(C)C)c2nc3ccc(C)cc3cc12 | i | -1.1
CC(C)(C)C(=O)NC1CCN(S(C)(=O)=O)CC1 | i | 0.88
Cc1ccc(N(Cc2ccco2)C(=O)c2ccc(N3CCCCC3)c([N+](=O)[O-])c2)cc1 | -7.1* | 0.91*
O=C(c1ccccc1)c1ccc(O)cc1O | i | 36

Some of these compounds in order of their number in KCNQ2 inh baseline, rising.
SMILES | KCNQ2 inh | KCNQ2 inh baseline
Cc1nnc(NC(=O)CSc2cn(CCNC(=O)c3ccccc3)c3ccccc23)s1 | i | -1.6
CN(C)C(CNC(=O)CCc1c[nH]c2ccccc12)c1ccccc1 (stereo not drawn) | i | -0.1
Cc1cc(C)c(NC(=O)Cn2nc(-c3ccccc3)nc2-c2ccccc2)c(C)c1 | i | 0.37
CC(C)(C)C(=O)NC1CCN(S(C)(=O)=O)CC1 | i | 0.88

The listing picks up, repeating the 2 entries before the break.
SMILES | KCNQ2 inh | KCNQ2 inh baseline
Cc1ccc(N(Cc2ccco2)C(=O)c2ccc(N3CCCCC3)c([N+](=O)[O-])c2)cc1 | -7.1* | 0.91*
O=C(c1ccccc1)c1ccc(O)cc1O | i | 36
Cc1cc(NCc2ccccc2)n2ncc(-c3ccccc3)c2n1 | i | -0.41
CN(C)NC(=S)Nc1cccc(Cl)c1 | i | -0.83
O=C1OCc2ccc(NC(=O)C3CC3)cc21 | i | -1.9
Cn1c(=O)n(CCc2ccccc2)c(=O)c2c1nc1n2CCCN1CCc1ccccc1 | i | 1.6
O=C(C#Cc1ccccc1)c1ccco1 | i | -1.1
O=C(O)c1cccc(NC(=S)N/N=C/c2c[nH]c3ccccc23)c1 | i | 0.33
O=C(NCCC(=O)N1CCCC1)c1ccccc1Cl | i | 0.33
COc1ccccc1Cc1nc(-c2ccc(C)cc2)no1 | i | -0.15
O=C(CCCc1nc(-c2ccc(Cl)cc2)no1)NC1CCCCC1 | i | 0.74
COC(=O)c1ccc(/C=N/OCC(=O)NCCc2ccc(OC)c(OC)c2)cc1 | i | -1.9

Of the compounds above, these have a thiophene ring, fused or not:
SMILES | KCNQ2 inh | KCNQ2 inh baseline
CCCc1ccc(-c2csc(NC(=O)Cc3cccs3)n2)cc1 | i | 0.47
CCc1cc(C(=O)Nc2cc(S(=O)(=O)N(CC)CC)ccc2N2CCN(C)CC2)sc1C | i | 0.38

Next compounds
SMILES | KCNQ2 inh | KCNQ2 inh baseline
COc1cc(C2CC(=O)Nc3n[nH]c(-c4ccccc4)c32)cc(OC)c1OC (stereo not drawn) | i | 1.5
CCOC(=O)c1ccc(N2C(=O)CC(Nc3ccc(CCO)cc3)C2=O)cc1 (stereo not drawn) | i | -0.09
O=C(N/N=C/c1ccncc1)c1cccc(NC(=O)c2ccc(Cl)cc2)c1 | i | -0.24
O=C(N/N=C/c1ccc(Sc2nc3ccccc3s2)c([N+](=O)[O-])c1)c1ccccn1 | i | 0.15
Cc1occc1C(=O)N1CCN(c2ccc([N+](=O)[O-])cc2)CC1 | i | -1.2
NC(=O)N/N=C/c1ccc(OCc2cccc(Cl)c2)cc1 | i | 0.05
Cc1onc(-c2c(F)cccc2Cl)c1C(=O)N=C(N)N1CC(C)OC(C)C1 (stereo not drawn) | i | -0.07
Cc1cc(NC(=O)c2ccc(F)cc2)n(CCOC(=O)c2ccc(F)cc2)n1 | i | -1
Cc1ccccc1OCC(=O)NC(=S)Nc1ccccc1N1CCN(S(C)(=O)=O)CC1 | i | -0.3
Cc1c(OCc2ccc([N+](=O)[O-])cc2)ccc2c3c(c(=O)oc12)CCC3 | i | -0.13
CCOc1ccc(/C=N/NC(=O)c2c(-c3ccccc3)noc2C)cc1 | i | 1.7
NC(=O)N/N=C/c1cc(Br)ccc1OC(=O)c1ccccc1 | i | -0.4
Cc1nn(Cc2ccccc2)c(C)c1NC(=O)c1cc2nc(-c3ccco3)cc(C(F)(F)F)n2n1 | i | -1.3
FC(F)Oc1ccc(NC(=S)NCc2cccnc2)cc1 | i | -0.43
CCN1CCN(c2nc(-c3ccccc3)c3ccccc3n2)CC1 | i | -2
CC(C)C(=O)Nc1ccc(C(=O)N/N=C/c2cc(Br)cc(Br)c2O)cc1 | i | 0.01
O=C(CCNC(=O)c1ccccc1Cl)NCC(c1ccc(F)cc1)N1CCOCC1 (stereo not drawn) | i | -0.06
COc1ccccc1C1(O)CC2CCC(C1)N2S(=O)(=O)c1ccc(C(C)=O)cc1 (stereo not drawn) | i | 2.2
CCN(CC)c1ccc(/C=N/NC(=O)C(O)(c2ccccc2)c2ccccc2)o1 | i | 0.55
O=C(NCc1ccccc1)C1=C[C@@H](C2CCCCC2)C[C@@H](OCCCCO)O1 | i | 1.2
COC(=O)c1ccc(C(=O)N(Cc2ccccc2)c2ccccc2)cc1 | i | 0.64
COc1cc(/C=N/Nc2ccc(C(=O)O)cc2)ccc1O | i | -1.6
O=[N+]([O-])c1ccc(-c2nnc3n2CCCCC3)cc1 | i | -0.02
COc1cc2c(cc1OC)CN(C(=O)c1ccc3nc[nH]c3c1)CC2 | i | -0.78
O=C(CCCn1c(SCC(=O)c2ccc(Cl)cc2)nc2ccccc2c1=O)NCc1ccco1 | i | 0.73
CC1CCc2[nH]c3ccc(C(=O)N(C)CC(=O)Nc4ccccc4C(F)(F)F)cc3c2C1 (stereo not drawn) | i | 0.78
Cc1ccc(OCCCC(=O)N(C)CC(=O)Nc2ccccc2Br)cc1 | i | 0.04
COc1ccccc1NC(=S)N(Cc1ccccc1)Cc1ccccn1 | i | -0.73
CC1CCN(S(=O)(=O)c2ccc(-c3nnc(SCc4cccnc4)o3)cc2)CC1 | i | 1.1
COc1cccc(-c2nc(C(=O)NCC3CCCO3)cc3c2[nH]c2ccccc23)c1 (stereo not drawn) | -5.7* | 0.06*
O=C(CCC(=O)N1CCN(c2ccccc2F)CC1)N1CCN(c2ccc(F)cc2)CC1 | i | 1.3
C#CCSc1cc(C(F)(F)F)nc(-c2ccccn2)n1 | i | -0.57
N#Cc1c(-c2ccc(F)cc2)ccnc1N1CCOCC1 | i | -0.92
COCCN(CCOC)C(=O)COC(=O)c1cc([N+](=O)[O-])ccc1Cl | i | -0.01
COc1ccc(N(C(=O)c2snc(C(N)=O)c2N)C(C(=O)NC2CCCCC2)c2ccc(F)cc2)c(OC)c1 (stereo not drawn) | i | -0.02
Cc1ccc(N=Nc2ccc3ccccc3c2O)cc1 | i | -0.58
Cc1cccc(CCNS(=O)(=O)c2ccc3c(c2)NC(=O)CS3)c1 | i | 1.2
NNC(=O)c1ccc(S(=O)(=O)N2CCc3ccccc32)cc1 | i | 0.15
Cc1cc(OCC(=O)NC2CC2)c2c(C)c(C)c(=O)oc2c1 | i | 0.69
COc1ccccc1Cn1nnc2c(=O)[nH]c(C3CCN(C(=O)c4ccc(F)cc4)CC3)nc21 | i | -1.1
CC1CCN(c2oc(Cc3cccc4ccccc34)nc2C#N)CC1 | -5.9* | -1.4*
COc1ccc(N(CN2C(=O)C3CC=CCC3C2=O)C(=O)c2ccco2)cc1 (stereo not drawn) | i | 2.7
COc1cc(OC)c2ccc(=O)oc2c1C(CCN1CCN(c2ccccc2)CC1)c1ccc2c(c1)OCO2 (stereo not drawn) | i | -1
Cc1ccc(C(C)C)cc1C(=O)CC1(O)C(=O)N(C)c2ccccc21 (stereo not drawn) | i | 2
Cc1ccccc1-c1nnc(SCC(=O)NC2CCCC2)n1C | i | 0.67
CCn1c(=N)c(S(=O)(=O)c2ccc(F)cc2)cc2c(=O)n3ccccc3nc21 | i | 2.6
CCCc1cc(C(=O)Nc2cc(C)ccc2O)no1 | i | 0.04
Cc1ccc(NC(=O)Cn2cc(C(F)(F)F)cc(Cl)c2=O)cc1S(=O)(=O)N1CCCCC1 | i | 1.1
CCc1ccc(C(=O)COC(=O)CNC(=O)c2ccc(N3C(=O)c4ccccc4C3=O)cc2)cc1 | i | -0.5
Cc1ccc(C(=O)N=c2sccn2C)cc1S(=O)(=O)N1CCOCC1 | i | 1.1

One compound at a time, as listed above.
COc1cc(OC)c2ccc(=O)oc2c1C(CCN1CCN(c2ccccc2)CC1)c1ccc2c(c1)OCO2 (stereo not drawn) in the list: KCNQ2 inh: i; KCNQ2 inh baseline: -1
CCc1ccc(C(=O)COC(=O)CNC(=O)c2ccc(N3C(=O)c4ccccc4C3=O)cc2)cc1 in the list: KCNQ2 inh: i; KCNQ2 inh baseline: -0.5

More records follow.
SMILES | KCNQ2 inh | KCNQ2 inh baseline
Cc1ccc(N2CC(C(=O)NCCN3CCOCC3)CC2=O)cc1C (stereo not drawn) | i | 0.38
Clc1ccc2nc(CSc3nnc4ccccn34)cn2c1 | i | 0.42
CCN(CC(=O)Nc1c(F)cccc1F)C(=O)CCc1nc2ccccc2c(=O)[nH]1 | i | -3.1
Nc1cc(=O)[nH]c(SCc2nc3ccccc3n2Cc2ccccc2)n1 | i | 1.2
Cc1nn(CC#N)c(=O)n1-c1ccc(F)cc1 | i | -1.9
Cc1nnsc1C(=O)NC1CCCc2c1cnn2-c1ccc(F)cc1F (stereo not drawn) | i | 1.4
COc1ccc(CN2CCN(S(=O)(=O)c3ccccc3)CC2)cc1Br | i | 0.69
COc1ccc(N2CCN(C(c3cccs3)C(C)NS(C)(=O)=O)CC2)cc1 (stereo not drawn) | i | 1.4
CC1Cc2ccccc2N1Cc1nc2scc(-c3cccs3)c2c(=O)[nH]1 (stereo not drawn) | i | 1.3
COc1ccc(C2=NO[C@@H]3C(=O)N(Cc4ccccc4)C(=O)[C@H]23)c(OC)c1 | i | -0.44
O=C(Nc1c(F)cccc1F)C1CCN(C(=O)c2cccs2)CC1 | i | -0.03
Cc1ccc(S(=O)(=O)Nc2c(C)n(C)n(-c3ccccc3)c2=O)c(C)c1 | i | -0.09
O=[N+]([O-])c1ccc(CN2CCN(c3nc4ccccc4s3)CC2)cc1 | i | -0.31
CCc1ccc(OCC(=O)Nc2ccc(-c3cc4ccccc4oc3=O)c(OC)c2)cc1 | i | 0.46
CC(=O)Nc1ccc(S(=O)(=O)NCc2cn3c(C)csc3n2)cc1 | i | 1.7
CCOC(=O)c1cc2c(ccc3ccccc32)oc1=O | i | -0.15
COc1cc2nc(CSc3nc(-c4ccc(F)cc4)cs3)[nH]c(=O)c2cc1OC | i | 2
O=C(NC(Cc1ccccc1)C(=O)O)/C(=C/c1ccc([N+](=O)[O-])cc1)NC(=O)c1ccccc1Br (stereo not drawn) | i | -1
COc1ccccc1CNC(=O)CSc1ccc(-c2cccc([N+](=O)[O-])c2)nn1 | i | 1.7
O=C(c1ccc(OC(F)(F)F)cc1)c1ncc[nH]1 | i | 0.21
O=C(NCc1ccccc1F)C1CCN(C(=O)NCc2ccccc2)CC1 | i | -1.7
S=C(NCCc1ccccc1)Nc1ccc(Cl)cc1Cl | i | 1.2
